From PubChem BioAssay
HNF4A DNA FP: change in binding of human HNF4 alpha to DNA; activity change, % at 10 µM; 0.3% of 360,000 active; HNF4a-FITC DNA binding, fluorescence polarization, 1 h; P41235; AID 1224865; in the data active means activity change above about 30%, passing the limit was not always enough;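 further: controls were the assay level and a saturating level of protein; the project sought stronger binding though the title names inhibitors; some compounds called inactive have numbers as strong as hits; positive values seem to mean higher polarization but the record does not say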
MLL AF4-AF9 inh: inhibitors of human MLL-AF4/AF9 interaction. P42568. AlphaScreen, biotin-AF4 peptide binding to FLAG-AF9. inhibition, % at 10 µM. 0.47% of 350,000 active. AID 651704;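 active means every replicate reaching a set inhibition limit, whatever the replicate mean, cut at about 25% in these data; inconclusive means mean inhibition reaches that limit but some replicates miss it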;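 further: 0% = plate neutral control median and 100% = total signal loss; the record names both 10 and 1 µM as test concentration; the first replicate is given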
Target sequence (P42568 whole entry, looked up): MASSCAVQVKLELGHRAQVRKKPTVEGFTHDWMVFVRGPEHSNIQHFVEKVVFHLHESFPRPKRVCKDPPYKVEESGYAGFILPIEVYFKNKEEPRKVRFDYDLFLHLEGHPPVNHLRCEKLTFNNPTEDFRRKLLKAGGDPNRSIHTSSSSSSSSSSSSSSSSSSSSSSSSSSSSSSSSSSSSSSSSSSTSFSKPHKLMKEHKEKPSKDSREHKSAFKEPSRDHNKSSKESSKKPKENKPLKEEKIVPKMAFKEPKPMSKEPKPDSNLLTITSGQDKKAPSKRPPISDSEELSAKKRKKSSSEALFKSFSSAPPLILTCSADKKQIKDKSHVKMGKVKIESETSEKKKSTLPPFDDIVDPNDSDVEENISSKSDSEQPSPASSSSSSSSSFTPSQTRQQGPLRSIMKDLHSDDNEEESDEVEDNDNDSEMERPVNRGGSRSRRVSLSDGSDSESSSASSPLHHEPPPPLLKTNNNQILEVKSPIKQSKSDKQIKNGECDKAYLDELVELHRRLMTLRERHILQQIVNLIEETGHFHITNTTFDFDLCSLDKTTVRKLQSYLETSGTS
FGF22 binding: shifts melting point of recombinant human FGF22; Q9HCT0; recombinant FGF22 thermal shift, SYPRO orange fluorescence; percent of sucrose octasulfate shift, DMSO zero; calls only at 9.99 µM; 1.5% of 340,000 active; AID 651658;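 active means melting point raised past a set limit in the mean and every replicate; inconclusive means no clear call; three in four hits are not shown here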
Target sequence (Q9HCT0 whole entry, looked up): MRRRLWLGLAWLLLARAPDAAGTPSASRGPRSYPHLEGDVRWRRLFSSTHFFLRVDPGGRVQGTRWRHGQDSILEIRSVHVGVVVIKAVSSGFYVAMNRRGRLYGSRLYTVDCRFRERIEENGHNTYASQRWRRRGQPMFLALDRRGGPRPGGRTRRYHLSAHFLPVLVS
ALR inh: inhibitors of human sulfhydryl oxidase ALR. P55789. inhibition, % (concentration not given with the values). 3.8% of 290,000 active. purified ALR, DTT oxidation, H2O2 HRP-luminol luminescence;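 active means mean and each replicate at 75% or more; inconclusive means only one of the two met; inactive means neither met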;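 further: stock transfer was 7.5 nL into about 7.5 µL; 0% = neutral wells and 100% = wells with inactivated enzyme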
Target sequence (P55789 whole entry, looked up): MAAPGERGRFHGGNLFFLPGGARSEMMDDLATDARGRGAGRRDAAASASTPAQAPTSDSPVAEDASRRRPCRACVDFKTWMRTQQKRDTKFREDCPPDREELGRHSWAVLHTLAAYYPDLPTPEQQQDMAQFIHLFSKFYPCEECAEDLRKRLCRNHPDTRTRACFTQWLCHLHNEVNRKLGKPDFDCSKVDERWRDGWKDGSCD
Ecoli growth: E. coli growth inhibition | Escherichia coli growth, OD600, 23 h; active compounds read low | OD600 absorbance (no concentration beside the values) | 0.21% of 330,000 active;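 active means OD600 absorbance below the run mean of sample wells minus 3.6 SD, in any replicate, cut at about 0.56 in these data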;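 further: stock transfer was 300 nL into about 60 µL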
Ecoli rRNA inh: inhibitors of bacterial rRNA selective over humanized ribosomes; 1.6% of 350,000 active; E. coli WT GFP vs humanized-ribosome RFP mutants, fluorescence, 24 h; active compounds read low; DMSO median 0, no signal -100; AID 720706; GFP signal change (wild-type ribosome), % (concentration not given with the values);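 active means significant combined selectivity score with lowered wild-type GFP, culture density cut under 30%, mutant RFP and density less affected; inactive means any of these conditions unmet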; further: one replicate is shown; some compounds called inactive have numbers as strong as hits
Vif A3G: HIV-1 Vif–A3G interaction blockers – biochemical, TR-FRET, GST-Vif 1-94, biotin-A3G peptide, dose response retest, primary screen (AID 1117319) | TR-FRET GST-Vif / biotin-A3G peptide binding; higher % means a stronger effect; test concentration not given here; strong numbers were not always called active | 0.57% of 260,000 active | inhibition, %, or IC50 in µM where a hit was titrated;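 active means above the screen mean plus three standard deviations and confirmed in dose response; inconclusive means results disagree or hit not tested in dose response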;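 further: Vif residues 1-94 fused to GST binding biotinylated APOBEC3G peptide 110-148; 0% = full assay without inhibitor and 100% = GST in place of GST-Vif; retest series ran down from 100 µM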
Ecoli rRNA inh OD600: second read-out of Ecoli rRNA inh, no call of its own (marks repeat the call); OD600 change, %; measured here: OD600 growth;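 optical density of the mix in the first replicate; 0 = DMSO median and -100 = no signal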
Ecoli rRNA inh RFP: second read-out of Ecoli rRNA inh, no call of its own (marks repeat the call); RFP signal change, %; measured here: RFP humanized mutant strains;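 first replicate; 0 = DMSO median and -100 = no signal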
An asterisk follows results filed as active; i = inactive; ? = inconclusive; / = not tested or not shown; + = active, no number; & = joins results of further samples. These rows are one share of the data; rates above refer to the full screens.

SMILES	HNF4A DNA FP	MLL AF4-AF9 inh	FGF22 binding	ALR inh	Ecoli growth	Ecoli rRNA inh	Ecoli rRNA inh OD600	Ecoli rRNA inh RFP	Vif A3G
CCOC(=O)c1c(NC(=O)CSc2nnnn2-c2ccccc2)sc2c1CC(C)(C)NC2(C)C	7.5	12	i	-8	0.71	2	-11	24	/
Cc1ccccc1CC1(CO)CCCN(Cc2ccccc2Cl)C1 (centres undefined)	4.2	-5.6	i	/	0.65	-28*	-18*	-1.2*	/
C[C@H](CO)N1C[C@H](C)[C@@H](CN(C)Cc2ccc(-c3ccccc3)cc2)Oc2c(cccc2N(C)C)C1=O	/	10	i	/	/	-17	-31	17	/
CC(C)OCCCNC(=O)c1cc(Sc2ccc(F)cc2)nc2ccccc12	1.5	/	/	-2	0.65	/	/	/	/
Cc1cc(CNC(=O)Cc2ccc(F)cc2)c2ccccc2n1	-2.2	-2.8	i	-1	0.68	6	6	0.1	29%
Cn1c(=O)c2c(ncn2CC(=O)N2CCN(c3ccccc3)CC2)n(C)c1=O	2.3	/	/	29	0.72	/	/	/	?
COc1ccccc1N1CCN(S(=O)(=O)/C=C/c2ccccc2)CC1	-2.9	/	/	-2	0.76	/	/	/	0%
CCC(C)N1CCC(Oc2ccc(C(=O)NCc3ccccn3)cc2)CC1 (centres undefined)	1.7	-10.0	i	-15	0.68	9	5	1.2	-13%
CCN(CC(=O)Nc1ccc2c(c1)OCCO2)C(=O)CC(NC(C)=O)c1ccccc1 (centres undefined)	-1.7	8.7	i	-3	0.59	2	2	-2.6	7%
O=C(O)COc1ccccc1/C=N/NC(=O)CSc1nc2ccccc2n1Cc1ccc(Cl)cc1	-4.8	1.0	+	/	/	-27	-21	19	/
CCCN(CCC)CCCNC(=O)C1CCN(S(=O)(=O)c2cccc3nsnc23)CC1	1.9	4.2	i	2	/	5	10	-1.3	/
O=C(COc1cccc2cccnc12)NNC(=O)Nc1ccccc1	-2.8	0.4	i	0	0.66	7	8	-1.4	6%
O=C(NCCCN1CCc2ccccc2C1)C1CCN(c2nnc(-n3cccc3)s2)CC1	-2.2	3.5	i	-13	0.7	-1	3	0.2	4%&-7%
COc1cc(OC)c(OC)cc1/C=N/NC(=O)CSc1ccccc1F	3.4	-0.8	i	-9	/	-1	4	4.9	-3%
CCn1c(SCC(=O)NCCc2ccc(Cl)cc2)nnc1-c1cccs1	4.1	/	/	-12	0.73	/	/	/	3%
CC(=O)c1cccc(NC(=O)CN2C(=O)NC(C)(C)C2=O)c1	-1.1	-0.3	i	-9	0.7	7	13	-0.2	/
O=C1CC[C@@H](CN(Cc2ccccn2)Cc2nc(Cc3ccccc3)no2)N1	2.2	-0.2	/	-11	0.69	11	9	1.9	4%
CC(=O)N1[C@H](C(=O)NCc2ccccc2F)[C@@H](CO)[C@@H]2Cn3c(ccc(-c4ccccc4)c3=O)[C@@H]21	/	3.2	i	/	/	1	4	-1.8	/
CC(C)NC(=O)N1C[C@@H]2[C@H](c3ccccc31)[C@@H](CO)N2C(=O)c1ccncc1	/	-0.9	i	/	/	5	-3	-0.5	/
Cc1ccc(S(=O)(=O)N(C)C[C@H]2Oc3c(NC(=O)NC(C)C)cccc3C(=O)N([C@H](C)CO)C[C@@H]2C)cc1	/	-1.7	i	/	/	-3	7	0.2	/
COc1cccc(NS(=O)(=O)CC23CCC(CC2=O)C3(C)C)c1 (centres undefined)	-0.1	/	/	-10	0.69	/	/	/	4%
O=Cc1cccn1-c1ccc(O)cc1	3.4	-2.2	i	0	0.65	9	3	-1.0	-3%
O=C(C[C@@H]1C[C@@H]2c3cc(NC(=O)c4ccc5c(c4)OCO5)ccc3O[C@@H]2[C@H](CO)O1)NCCN1CCCCC1	/	3.0	i	/	/	2	-2	-1.4	/
COCCOC(=O)C1=C(C)N(Cc2ccccc2)C(=O)NC1c1cccc(OC)c1OC (centres undefined)	0.6	/	/	-22	0.67	/	/	/	-5%
COc1cc(C(=O)NC(C)c2ccccc2)ccc1OCC(=O)N1CCOCC1 (centres undefined)	-2.9	-0.9	i	3	0.68	10	10	-0.9	9%
Clc1cccc(Cc2c(-c3cccc(Br)c3)nc3ccc(Cl)cn23)c1	14	-1.0	i	/	/	-13	-40	-4.5	/
Cc1cccc(Nc2nc(-c3ccncc3)cs2)c1	1.0	5.6	i	61	0.65	-34	-49	2.6	-7%
O=C(Nc1ccc(F)cc1)C1CCCN(S(=O)(=O)c2ccc3[nH]c(=O)ccc3c2)C1 (centres undefined)	-0.7	-1.6	i	-4	0.77	13	11	6.0	-4%
CCOC(=O)c1cnn(C(=O)c2ccccc2)c1N	3.1	-0.6	i	/	0.63	13	10	0.5	/
CCN(CC(=O)Nc1c(F)cccc1F)C(=O)c1cccnc1SC	-3.6	-3.3	i	-5	0.71	7	6	-2.0	/
CC(=O)OC1C(=O)N(Cc2ccccc2)C1c1ccc(C)cc1 (centres undefined)	-0.1	-4.6	i	/	/	-25	-29	-4.2	-1%
O=C(N/N=C/c1cccnc1)c1ccccc1	-0.7	4.0	i	/	/	30	11	10	-12%
COc1ccc(S(=O)(=O)Nc2cccc3c2O[C@@H](CN(C)C(=O)Nc2c(C)noc2C)[C@H](C)CN([C@@H](C)CO)C3=O)cc1	/	0.3	i	/	/	0	4	-1.8	/
O=C(NCc1nc2ccccc2[nH]1)C1=C[C@H](c2ccc(Br)cc2)C[C@H](OCc2ccc(CO)cc2)O1	-0.8	2.4	i	-2	/	-14	-30	30	0%
NC(=O)c1ccc(N2CCN(S(=O)(=O)c3ccccc3)CC2)c([N+](=O)[O-])c1	3.5	1.0	/	-8	0.71	17	18	2.8	-3%
COCC(C)OC(=O)c1c(N)n(CCCN2CCOCC2)c2nc3ccccc3nc12 (centres undefined)	-0.2	5.1	i	-28	0.64	-4	1	1.3	-4%
COc1ccccc1C(=O)NC(=O)COC(=O)c1ccc(NC(=O)CC#N)cc1	-0.1	-13	i	51	0.64	0	-3	-1.3	2%
COCCNC(=O)C1CCCN(C(=O)c2ccc(OC)c(F)c2)CC1 (centres undefined)	2.5	1.2	i	/	/	/	/	/	/
CC(C)Nc1nc(NC(C)C)nc(Oc2ccc(=O)n(C)n2)n1	1.9	-0.6	i	/	0.69	22	16	0.9	6%
O=C(Cn1nc(Cc2cccnc2)c2ccccc2c1=O)NCc1ccc(F)cc1	1.6	2.3	i	/	0.72	11	7	-7.0	-13%
CCC(=O)c1ccc(OC(=O)N2CCOCC2)cc1	-2.6	3.7	i	-9	0.66	20	13	0.8	-2%
COc1ccc(OCc2cc(C(=O)NC(C)c3cnn(C)c3)no2)c(Cl)c1 (centres undefined)	3.2	-2.4	i	-3	0.69	-2	-7	-0.3	/
O=C(NC1CCCC1)C1CCN(S(=O)(=O)c2ccccc2)CC1	-1.4	-0.3	i	/	0.65	2	8	0.0	/
CCOC(=O)C1(Cc2ccccc2C(F)(F)F)CCN(C2CCC2)CC1	-1.2	-0.6	i	-5	0.69	2	-5	-3.4	0%
c1ccc(CSc2nnc(-c3ccco3)o2)cc1	-1.3	2.4	i	-6	/	6	5	-3.3	?
O=C(NN1C(=O)/C(=C/c2cccnc2)SC1=S)C(c1ccccc1)c1ccccc1	0.4	5.7	i	-1	0.69	-10	-4	1.9	-1%
CC(=O)C1=C(C)N(Cc2ccccc2)C(=O)N[C@H]1c1cccs1	-1.5	2.2	i	-20	/	-5	-6	-3.7	?
CCCC(=Nc1ccc(N)cc1)C1=C(O)C(C(=O)OC)C(C)(C)CC1=O (centres undefined)	0.4	/	/	73	0.74	/	/	/	2.8µM*
COc1ccc(S(=O)(=O)Nc2cc(SCC(=O)O)c(O)c3ccccc23)cc1	1.6	2.9	i	56	0.65	-25	-24	-12	22µM*
Cc1cc(NC(=O)c2cc([N+](=O)[O-])cc([N+](=O)[O-])c2)n(-c2ccccc2)n1	-0.7	/	/	-50	0.7	/	/	/	15%
C[C@@H]1CN([C@@H](C)CO)C(=O)c2cccc(NC(=O)c3ccncc3)c2O[C@H]1CN(C)S(=O)(=O)c1ccc(Cl)cc1	/	-2.2	i	/	/	-3	-6	-2.8	/
COc1ccc(CCNC(=O)CCN2C(=O)c3ccccc3C2=O)cc1OC	/	/	/	-5	0.7	/	/	/	4%
COCC#Cc1ccc2c(c1)O[C@@H](CN(C)Cc1cncnc1)[C@@H](C)CN([C@@H](C)CO)S2(=O)=O	/	1.2	i	/	/	2	5	1.3	/
C[C@@H]1CN([C@H](C)CO)C(=O)Cc2cc(NC(=O)Nc3cccc4ccccc34)ccc2O[C@@H]1CN(C)S(=O)(=O)c1ccc(Cl)cc1	/	-0.7	i	/	/	4	8	2.3	/
C[C@@H]1CN([C@@H](C)CO)C(=O)c2cc(C#Cc3cccc(F)c3)cnc2O[C@@H]1CN(C)C(=O)C1CCC1	/	-2.2	i	/	/	2	-3	0.9	/
C[C@@H]1CN([C@H](C)CO)C(=O)CCCn2cc(nn2)CO[C@@H]1CN(C)C(=O)Oc1ccccc1	/	1.4	i	/	/	5	2	-1.0	/
O=C(COc1ccc([N+](=O)[O-])cc1)N1CCc2ccccc2C1	1.1	0.2	i	-5	0.66	-10	-6	0.6	/
COc1ccc(NC(=O)Cn2c(=O)cnc3ccccc32)cc1S(=O)(=O)N1CCCCC1	3.8	-1.1	i	-1	0.71	6	1	-3.5	2%
CC(=O)c1ccccc1C(=O)N1CCCC(CNC(=O)c2ccc(F)cc2)C1 (centres undefined)	5.1	-7.7	i	/	/	11	11	-0.8	4%
O=C(c1ccco1)N1CCN(c2ccc(F)cc2)CC1	-5.1	0.1	i	38	0.73	2	4	0.4	/

Single values from the results shown:
O=C(COc1ccc([N+](=O)[O-])cc1)N1CCc2ccccc2C1 @ ALR inh: -5
CCCC(=Nc1ccc(N)cc1)C1=C(O)C(C(=O)OC)C(C)(C)CC1=O (centres undefined) @ Ecoli growth: 0.74

(continued)
SMILES	HNF4A DNA FP	MLL AF4-AF9 inh	FGF22 binding	ALR inh	Ecoli growth	Ecoli rRNA inh	Ecoli rRNA inh OD600	Ecoli rRNA inh RFP	Vif A3G
S=C(Cc1ccc(-c2ccccc2)cc1)N1CCOCC1	-0.4	1.7	i	0	0.65	/	/	/	/
Cc1cc(C)n2nc[n+](C)c2n1	4.2	/	/	/	0.73	/	/	/	4%
Cn1nnnc1NC(=O)c1ccccc1Cl	0.2	3.8	i	-5	0.69	3	11	3.8	/
CO[C@@H]1CN(C)C(=O)c2ccc(NC(=O)c3ccc4c(c3)OCO4)cc2OC[C@@H](C)N(CCC(F)(F)F)C[C@@H]1C	/	0.3	i	/	/	-10	-15	8.9	/
CCCCCN1C(C)=CC(=C(C#N)C#N)C=C1C	-3.8	3.4	i	-3	0.67	14	10	0.9	-17%
COc1ccc(CNC(=O)C2(CC3CC(c4ccccc4)=NO3)CCN(C(=O)OC(C)(C)C)CC2)cc1 (centres undefined)	2.9	-0.6	i	-3	0.71	1	3	-3.9	/
NC(=O)c1ccc(N2CCCCC2)c(N2C(=O)C3C4C=CC(C4)C3C2=O)c1 (centres undefined)	-0.9	/	/	-3	0.76	/	/	/	19%
COCn1c(=O)c2c(nc(SC3=NCCS3)n2Cc2ccccc2C)n(COC)c1=O	-0.4	/	/	26	0.72	/	/	/	6%
